Screens: PubChem BioAssay, ICCB-Longwood Screening Facility, Harvard Medical School
AID504770 – growth inhibitors of E. coli YBA685 in a screen for V. cholerae RctB (chromosome II replication) inhibitors; E. coli YBA685 rctB-dependent plasmid, OD600 growth, 3 h; stronger effect = lower value; z-score (concentration not given with the values); 130,000 tested, 0.27% active;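 active = z-score under -2 on both plates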;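 also: wells of about 30 µL received 100 nL stock; score is relative to mean and SD of the test wells; the first replicate is given; strong numbers were not always called active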
CapD inh – inhibitors of Bacillus anthracis CapD enzyme | AID 492967 | purified CapD enzyme, fluorescence intensity read-out; stronger effect = lower value; some hits fall short of the stated cut | z-score (test concentration not listed) | 140,000 tested, 0.23% active;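 active = z-score under -4 in either of two replicates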;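 also: stock transfer was 100 nL into about 40 µL; score is relative to mean and spread of the plate; one replicate is shown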
Numbers without * were called inactive; . = not tested or not shown.

SMILES | AID504770 | CapD inh
O=C(c1ncoc1-c1cccs1)N1CCN(Cc2cccc3ccccc23)CC1 | -0.75 | .
O=C1Nc2ccc(S(=O)(=O)N3CCCCC3)c3cccc1c23 | . | 0.605
CCCCC1CCC(C(=O)Oc2ccc(OCC)cc2)CC1 (stereo not given) | 0.75 | -0.185
O=C(COc1ccccc1)Nc1ccc(Cl)c(-c2nc3ccccc3c(=O)o2)c1 | 1.55 | 0.22
O=[N+]([O-])c1ccc(N2CCc3nn(-c4cccc(Cl)n4)cc3C2)cc1 | . | -2.94
Cc1cc(C)cc(C(=O)OCC(=O)c2cc3c4c(c2)CC(=O)N4CCC3)c1 | 0.3 | .
COc1ccc(C(=O)Nc2nnc(CCS(=O)(=O)c3ccc4ccccc4c3)s2)cc1OC | . | 0.92
Cc1ccc(C(=O)NN2CCc3cc4ccc(C)cc4nc32)cc1 | -0.85 | 3.21
CCN(C(=O)CSc1nnnn1-c1ccccc1)C1CCS(=O)(=O)C1 (stereo not given) | -0.5 | .
COc1cccc(N2CCc3c(C)nc4ccc(Cl)cc4c32)c1 | -0.5 | 107
COc1ccc2ccc(O)c(CN3CCN(C(=O)C4CC4)CC3)c2c1 | 0.25 | .
CCN(CC)CCOC(=O)c1ccc(NC(=O)CCN2C(=O)S/C(=C/c3ccc(Cl)cc3)C2=O)cc1 | . | -0.75
Cc1ccc(S(=O)(=O)N2CCC(=O)c3ccccc32)cc1 | -0.45 | 5.25
COc1cc(Nc2nc(SCC(=O)n3nc(N)cc3C)nc3ccccc23)cc(OC)c1 | . | -0.505
CCC1CCCCN1C(=O)CN1C(=O)c2ccccc2S1(=O)=O (stereo not given) | -0.35 | .
Cc1ccc(C)c(NCc2c(O)c(Br)cc3oc4c(c23)CCCC4)c1 | . | -0.415
COc1cc(-c2nc3ncccn3c2Nc2ccc3c(c2)OCO3)ccc1O | -0.2 | -0.905
CCCCc1ccc(NCc2nc(-c3ccc(C)cc3)no2)cc1 | 1.65 | -0.24
CCn1cc(C(=O)N2CCCCC2)c(=O)c2cc(S(=O)(=O)N3CCCC3)ccc21 | 1.95 | 0.045
C=CCOc1cccc(C(=O)NCCOC)c1 | -1.3 | 0.095
CCc1ccccc1-n1c(SCC(=O)Nc2cc(OC)ccc2OC)nc2n[nH]c(C)c2c1=N | . | -0.135
C=CCN1C(=O)/C(=C/C=C/c2ccccc2)S/C1=N\c1nnc(CC)s1 | . | -0.205
Cc1cc(OCCN2CCOCC2)ccc1C(C)C | 1.5 | 0.42
CCC(=O)Nc1c2c(nn1-c1ccc(C)cc1)CSC2 | -0.8 | -0.09
C1CN(c2nsnc2OCCOc2nsnc2N2CCOCC2)CCO1 | -0.45 | .

SMILES | AID504770 | CapD inh
COc1ccc(CN2C(=O)C(C)SC2c2cccnc2)cc1 (stereo not given) | -0.9 | -0.015
Cc1cc(C)c(C(=O)COC(=O)c2ccc(N(C)C)cc2)c(C)c1 | 0.95 | .
COc1cccc(-n2c(SCC(=O)N3CCCCC3C)nc3ccccc3c2=O)c1 (stereo not given) | -0.6 | .
CCOC(=O)c1c(C)[nH]c(C(=O)COC(=O)c2ccccc2)c1C | 2.05 | .
Cc1c(C(=O)Nc2c(F)cccc2F)sc2ncn(CC(=O)Nc3cccc(C(F)(F)F)c3)c(=O)c12 | . | 0.635
CCCOC(=O)C1=C(C)N(C)C(=O)NC1c1cc(Br)c(O)c(OC)c1 (stereo not given) | . | -0.01
O=C(C1CCN(c2ccc(-c3cccs3)nn2)CC1)N1CCN(Cc2ccc3c(c2)OCO3)CC1 | -1.2 | 0.03
N#Cc1ccc(OCC(=O)OCC(=O)N2CCCCC2)cc1 | 0.25 | .
CC1[C@H](C(=O)NN)[C@H]1C(=O)NN (stereo not given in full) | . | 0.025
CN(C)C(=O)Oc1cc(-c2ccccc2)nc(C2CC2)n1 | 0.25 | -0.235
COc1ccc(-n2cnc3cc(C(=O)NCc4cccnc4)ccc32)cc1 | -0.5 | -0.135
O=S(=O)(NC1CCN(Cc2ccccc2)CC1)c1cccc(C(F)(F)F)c1 | 1.6 | 0.115
O=C(OCc1c(Cl)cccc1Cl)c1ccc2ccccc2n1 | 0 | 0.065
COC(=O)C1=CN(C)C=C(C(=O)OC)C1c1ccc2c(c1)OCO2 | -1.45 | 52.6
NS(=O)(=O)c1ccc(-n2ncc(Cl)c(Cl)c2=O)cc1 | 0.05 | .
O=c1c2ccccc2nc(-c2ccccc2)n1Nc1ccc(F)cc1F | -0.35 | -0.2
CC(C)C(NC(=O)Cc1c[nH]c2ccccc12)C(=O)NC(Cc1c[nH]c2ccccc12)C(=O)Nc1ccc2ccccc2c1 (stereo not given) | . | 0.51
CC(=O)N1CCN(c2ccc(S(=O)(=O)N3CCCCC3)cn2)CC1 | -0.2 | .
Clc1ccc(C2Oc3ccccc3C3=C2C(c2cccs2)n2ncnc2N3)cc1 (stereo not given) | . | -0.245
OCCNc1nc(Cl)nc(N2CCC(Cc3ccccc3)CC2)n1 | . | -0.42
Cc1ccc(S(=O)(=O)N2CCC(C(=O)NC3CC3)CC2)cc1 | -0.2 | -0.12
COc1cc(Br)cc(CNc2cc(C)on2)c1O | -0.45 | -0.095
COc1ccccc1OC(C)C(=O)O (stereo not given) | 0.55 | 0.475
COc1ccc(C2c3c(oc4ccccc4c3=O)C(=O)N2CCCO)cc1 (stereo not given) | -0.4 | 0.21
O=S(=O)(/C=C/c1ccccc1)N1CCNCC1 | 0.4 | -0.12

Sorted by molar mass (ascending): 4 of the compounds above.
SMILES | AID504770 | CapD inh
CN(C)C(=O)Oc1cc(-c2ccccc2)nc(C2CC2)n1 | 0.25 | -0.235
Cc1ccc(S(=O)(=O)N2CCC(C(=O)NC3CC3)CC2)cc1 | -0.2 | -0.12
O=C(OCc1c(Cl)cccc1Cl)c1ccc2ccccc2n1 | 0 | 0.065
OCCNc1nc(Cl)nc(N2CCC(Cc3ccccc3)CC2)n1 | . | -0.42

More entries follow.
SMILES | AID504770 | CapD inh
C=C(C)CSc1nnc(C)c(=O)[nH]1 | 1.9 | -1.16
O=C(NC(=S)Nc1ccccc1CO)C1CCCCC1 | 0.5 | .
O=C(CSc1nc2ccccc2n1S(=O)(=O)c1ccc(Cl)cc1)NCc1cccs1 | . | -0.45
CCCCCCOCCOCCOC(=O)NNC(=O)CNS(=O)(=O)c1cccc2nsnc12 | . | -1.1
CCOC(=O)c1csc(NC(=O)CSc2cc(Cl)ccc2Cl)n1 | 0.15 | -0.765
CCOC(=O)Cc1nn(CC(N)=S)c(=O)c2ccccc12 | . | -0.41
CN(C)S(=O)(=O)c1ccc(C(=O)N2CCC(c3nc4ccccc4o3)CC2)cc1 | -0.7 | .
CCCc1nc2ccccc2nc1C | -0.5 | -0.905
O=C(Nc1ccccc1)N1CCN(C2c3ccccc3-c3ccccc32)CC1 | -0.5 | -0.865
COc1cc(OC)nc(CN2CCC(C)CC2)n1 | . | -0.51
COc1ccc(OC)c(S(=O)(=O)NC2CCS(=O)(=O)C2)c1 (stereo not given) | -0.8 | 1.23
O=C(CN1CCc2ccccc21)NCc1ccc2c(c1)OCO2 | -0.05 | .
CC1Cc2ccccc2N1Cc1nnc(-c2ccccc2)o1 (stereo not given) | -0.35 | 1.05
COc1cc(C=Nc2c(C)n(C)n(-c3ccccc3)c2=O)ccc1OC(C)=O | . | 0.79
Cc1ccccc1NC(=O)Cc1nc(CSc2nnc(-c3ccccc3)n2C)cs1 | -0.3 | .
Nc1nc(-c2ccc(S(=O)(=O)N3CCOCC3)cc2)cs1 | -0.6 | 15.2
CC(Oc1ccc(F)cc1)C(=O)O (stereo not given) | -0.6 | .
CN(CC(=O)Nc1ccc2c(c1)OCCCO2)C1=NS(=O)(=O)c2ccccc21 | -0.55 | .
COc1ccc(-c2cc3ccccc3n2CC(O)CN2CCCCCC2)cc1 (stereo not given) | -0.1 | 9.21
CCC1C(O)=C(c2ccccn2)C(=N)N1c1ccccc1 (stereo not given) | -0.35 | .
O=c1[nH]c(CN2CCNCC2)nc2ccccc12 | 0.05 | 7.57
CC(C)CCNC(=O)c1ccc(S(=O)(=O)N2CCCC2)cc1 | -0.25 | .
Cc1c(C(=O)NC2=NCCS2)oc2ccccc12 | -1 | -0.285
CCOc1ccc(-n2c(=S)[nH]c3ccc(Br)cc3c2=O)cc1 | . | -0.785
CC(=O)N(Cc1nnc2c3ccccc3c(C)nn12)c1ccccc1 | -0.25 | 0.73

mol	AID504770	CapD inh
CCOC(=O)COc1nc(-c2ccccc2)cc(-c2ccccc2)c1C#N	0.9	38.5
NC(=O)COC(=O)c1ccccc1Oc1ccccc1	-0.7	0.485
CCOC(=O)C1=C(C)NC2=C(C(=O)C(C(=O)OCC)C(c3ccccc3OC)C2)C1c1ccc(Br)cc1 (stereo not given)	.	0.84
CCC(=O)Nc1cccc(C(=O)N/N=C/c2c(CO)cnc(C)c2O)c1	.	1.27
O=C(Nc1c2c(nn1-c1ccc(Cl)cc1)CS(=O)(=O)C2)c1ccc(S(=O)(=O)N2CCOCC2)cc1	.	-0.33
CCCC(=O)OC1C(=O)c2ccccc2OC1c1ccccc1 (stereo not given)	-0.3	-0.56
Cc1cc(C)nc(NS(=O)(=O)c2ccc(NC(=O)c3ccccc3Cl)cc2)n1	.	-0.37
Cc1cc(C(=O)NNC(=O)C(CC2CCCCC2)NC(=O)OC(C)(C)C)n[nH]1 (stereo not given)	.	0.405
C=CCn1nnnc1SCc1cccc(CSc2nnnn2CC=C)c1	0.45	0.125
CN1/C(=C\C=N\Nc2ccccn2)C(C)(C)c2ccccc21	-0.25	.

mol	AID504770	CapD inh
Nc1cc(C(=O)N2CCCC2)cc(C(=O)N2CCCC2)c1	0.25	4.11
COC(=O)c1ccc2c(=O)n(Cc3ccc(C(=O)N4CCN(c5ccccn5)CC4)cc3)c(=S)[nH]c2c1	.	0.93
CCNC(=S)Nc1ccc(OC)cc1	-0.45	-0.065
Cc1ccc(N2C(=O)/C(=C/c3cc(Cl)c(OCC(=O)O)c(Cl)c3)C(=O)NC2=S)cc1	.	-0.08
CCOC(=O)C1CCN(C(=O)CCS(=O)(=O)Cc2ccccc2)CC1	-0.25	.
Cc1cccc(NC(=O)Cn2cnc3ccccc3c2=O)c1	-0.15	0.445
CCOC(=O)N1c2ccc(C(C)C)cc2C=CC1C#N (stereo not given)	0.1	0.605
CC1=C(C(=O)Nc2ccc(Br)cc2F)C2C(=O)N(C)C=NC2O1 (stereo not given)	0.75	0.195
NS(=O)(=O)c1ccc(CCNC(=O)CCCn2c(SCC(=O)Nc3nccs3)nc3ccsc3c2=O)cc1	1.75	-0.275
CN(C(=O)c1coc(=O)c2ccccc12)c1ccc(F)cc1	.	-0.73

mol	AID504770	CapD inh
Cc1nc(-c2ccccc2)sc1C(=O)Nc1ccc(-c2cn3ccccc3n2)cc1	.	0.125
CCOC(=O)c1ccc(NC(=O)N2CC(C)Oc3ccccc32)cc1 (stereo not given)	-0.3	-0.52
CN1C(=O)/C(=C2/SC(=S)N(c3cccc(O)c3)C2=O)c2ccccc21	-0.25	.
COc1ccc(CNC(=O)c2ccc3n[nH]nc3c2)cc1	.	-0.14
CCN(CC)S(=O)(=O)c1ccc2c3c(cccc13)C(=O)N2C(=O)c1cccnc1	0.15	.
CCC(=O)OC1(Cc2ccc(CC)cc2)CC(C)N(C)CC1C (stereo not given)	-0.25	0.425
CCOC(=O)C1=C(N)N(c2ccc(Br)cn2)C2=C(C(=O)CC(C)(C)C2)C1c1cccnc1 (stereo not given)	.	0.73
O=S(=O)(Nc1cccnc1Oc1ccc(Cl)cc1)c1ccc(Cl)cc1	.	-0.23
S=c1[nH]n(-c2ccccc2)c(=S)s1	2.1	-2.43
CC(=O)Nc1ccc(OC(=O)Cc2ccccc2)cc1	-0.2	0.26

Shown field by field: 4 of the compounds above
CN1C(=O)/C(=C2/SC(=S)N(c3cccc(O)c3)C2=O)c2ccccc21
  AID504770: -0.25
  CapD inh: .
CC(=O)Nc1ccc(OC(=O)Cc2ccccc2)cc1
  AID504770: -0.2
  CapD inh: 0.26
CCOC(=O)C1=C(N)N(c2ccc(Br)cn2)C2=C(C(=O)CC(C)(C)C2)C1c1cccnc1 (stereo not given)
  AID504770: .
  CapD inh: 0.73
O=S(=O)(Nc1cccnc1Oc1ccc(Cl)cc1)c1ccc(Cl)cc1
  AID504770: .
  CapD inh: -0.23

More entries follow:
mol	AID504770	CapD inh
CCOC(=O)C1=C(C)NC2=C(C(=O)C(C(=O)OCC)C(c3ccccc3OC)C2)C1c1ccc(SC)cc1 (stereo not given)	.	5.61
CNC(=O)Nc1ccc2snnc2c1	-0.15	0.445
O=C(CSc1nc2ccccc2o1)NCc1n[nH]c(=O)c2ccccc12	.	-0.53
Cc1cccc(C(=O)Nc2ccc(Sc3ccccc3Cl)cc2)c1	.	0.16
Cc1nc2sccn2c1C(=O)c1ccc(NC(=O)c2ccc(F)cc2)cc1	1.1	-1.67
O=[N+]([O-])c1cccc(C2Nc3ccccc3C(c3ccccc3)(c3ccccc3)O2)c1 (stereo not given)	.	-0.235
N#CC1=C(N)N(c2ccc(Br)cc2F)C2=C(C(=O)CCC2)C1c1ccsc1 (stereo not given)	.	-1.29
Cc1ccc(C)n1NC(=O)c1ccco1	0	0.055
CC(C)OC1(c2ccccc2)OC(=O)c2ccccc21 (stereo not given)	.	-0.05
CC(=NC(=S)c1ccc(Cl)cc1)N(C)C	0.5	-1.06

mol	AID504770	CapD inh
OCCNc1nc2ccc(Cl)cc2[nH]1	-0.85	0.29
COc1ccccc1N1CCN(CC(O)COc2ccc3c(C)cc(=O)oc3c2)CC1 (stereo not given)	-0.6	.
Cc1ccc(C(C)C)cc2c(C)ccc1-2	.	-0.335
CCOc1ccc(C(=O)N2CCSC2=S)cc1	1.15	-2.92

Some of the compounds tested. The share of hits here may be higher or lower than overall.
